Hedgehog inh: Hedgehog pathway signaling inhibitors, primary screen, luminescence, Shh-LIGHT2 cells, Gli-luciferase. Shh-LIGHT2 Gli-luciferase reporter, 30 h. inhibition, % (test concentration not listed). 2.1% of 22,000 active;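 active = replicate mean of 65% or more; inconclusive = mean lower but half the replicates past it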;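 also: pathway switched on by Shh-conditioned medium diluted 1 in 25 in low serum; 100 nL library stock added to about 40 µL; 0% = median of neutral wells and 100% = positive control level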
PD-1 reverse act: activators reversing PD-1 mediated T-cell inhibition, primary screen, luminescence, primary human CD4 T cells, PD-L1 beads; CellTiter-Glo 96 h; activation, % (test concentration not listed); 29,000 tested, under 10 active;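 active = replicate mean of 50% or more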;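 also: 0% = median vehicle wells and 100% = positive control; 100 nL library stock added to about 50 µL; numbers are from one replicate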
MITF inhib: inhibitors of MITF, primary screen, MITF inhibitor project, cell-based, luminescence; 0.28% of 37,000 active; AID 2240, 2010; inhibition, % (no concentration beside the values); TRPM1 promoter luciferase, 24 h;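 active = most replicates at 85% or more, or half of them and the mean; inconclusive = half reach 85% but not the mean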;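 also: human melanocyte line stably carrying TRPM1 promoter luciferase reporter; 0% = vehicle wells and 100% = a positive control; the first replicate is given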
YB-1 expression: inhibitors of YB-1 gene expression, primary screen, cell-based, fluorescence. AID 434959, 2010. 0.37% of 30,000 active. U2OS, qRT-PCR YB-1 vs CDIP delta delta Cp, 16 h; stronger effect = higher value; zero = DMSO, each unit about twofold. delta delta Cp (YB-1 minus CDIP) (concentration not given with the values);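 active = delta delta Cp rounded down to an integer at or above 3, about 3 SD of DMSO wells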;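 also: higher means less YB-1 transcript or more CDIP transcript relative to DMSO; stock transfer was 100 nL into about 100 µL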
* hit, by the source's call; ? = inconclusive; · = not tested or not shown.

SMILES	Hedgehog inh	PD-1 reverse act	MITF inhib	YB-1 expression
C/C(=C\C=C\[C@@H](C)[C@H]1CC[C@@]2(C)[C@@H]3CCC4C(C)(C)[C@@H](O[C@@H]5O[C@H](CO)[C@@H](O[C@@H]6O[C@@H](C)[C@H](O)[C@@H](O)[C@H]6O)[C@H](O)[C@H]5O[C@@H]5O[C@H](CO[C@@H]6O[C@H](CO)[C@@H](O)[C@H](O)[C@H]6O)[C@@H](O)[C@H](O)[C@H]5O[C@@H]5O[C@@H](C)[C@H](O)[C@@H](O)[C@H]5O)CC[C@@]45C[C@@]35CC[C@]12C)C(=O)N[C@@H]1C(=O)O[C@H](C)[C@@H]1C (some centres undefined)	-34	·	·	0.79
C[C@H]1CN([C@@H](C)CO)C(=O)Cc2cc(NS(C)(=O)=O)ccc2O[C@H]1CN(C)C(=O)Nc1ccc(F)cc1	-17	0.3	-6	-0.067
Cc1ccc(S(=O)(=O)Nc2cccc3c2O[C@@H](CN(C)S(=O)(=O)c2ccc(Cl)cc2)[C@H](C)CN([C@@H](C)CO)C3=O)cc1	-28	·	-12	-0.056
C[C@@H]1CN([C@@H](C)CO)C(=O)c2cccc(N(C)C)c2O[C@H]1CN(C)S(=O)(=O)c1ccc(F)cc1	-5	3.4	2	-0.053
COc1ccc(S(=O)(=O)Nc2ccc3c(c2)C(=O)N([C@H](C)CO)C[C@H](C)[C@H](CN(C)C(=O)Cc2ccccc2)OCCCC[C@@H](C)O3)cc1	-4	-1.6	-9	-0.02
C[C@@H]1CN([C@H](C)CO)C(=O)c2cccc(NC(=O)CCCCCC(=O)Nc3ccccc3N)c2O[C@@H]1CN(C)S(C)(=O)=O	·	1.5	-10	0.042
C[C@H](CO)N1C[C@H](C)[C@H](CN(C)S(=O)(=O)c2ccc(F)cc2)Oc2ccc(NC(=O)CCN3CCOCC3)cc2C1=O	·	2.2	-10	0.36
C[C@H]1CN([C@@H](C)CO)C(=O)Cc2cc(NC(=O)Cn3cnnn3)ccc2O[C@H]1CN(C)S(=O)(=O)c1cn(C)cn1	10	2.0	0	-0.0013
Cc1cc(N(Cc2cccc(Cl)c2Cl)C(=O)c2ccccc2)no1	2	-0.4	-3	-0.045
Cc1ccc(S(=O)(=O)Nc2ccc3c(c2)CC(=O)N([C@H](C)CO)C[C@@H](C)[C@H](CN(C)Cc2ccc(Oc4ccccc4)cc2)O3)cc1	-22	-4.1	14	-0.29
C[C@H](CO)N1C[C@H](C)[C@H](CN(C)Cc2ccc(C(F)(F)F)cc2)Oc2c(NS(=O)(=O)c3cn(C)cn3)cccc2C1=O	-86	0.1	-7	0.14
C[C@H]1CN([C@@H](C)CO)C(=O)c2cccc(NC(=O)c3ccncc3)c2O[C@@H]1CN(C)S(=O)(=O)c1cn(C)cn1	-35	·	-7	0.083
COc1c(C)c(OCC=C(C)C)cc(CO)c1CO	-18	1.9	-5	0.004
C[C@@H]1CN([C@@H](C)CO)C(=O)c2cc(NC(=O)Nc3ccc(C(F)(F)F)cc3)ccc2O[C@H]1CN(C)Cc1ccc(C(=O)O)cc1	-4	1.0	-10	0.033
COc1ccc(S(=O)(=O)Nc2ccc3c(c2)C(=O)N([C@@H](C)CO)C[C@H](C)[C@H](CN(C)Cc2ccncc2)O3)cc1	·	2.0	1	-0.83
Cc1noc(C)c1NC(=O)N(C)C[C@H]1Oc2ccc(NC(=O)Cc3ccccc3)cc2CC(=O)N([C@@H](C)CO)C[C@H]1C	·	·	3	-0.14
Cc1cc(O)c2c(c1)C(=O)OC2c1c(O)cccc1O (centres undefined)	10	2.7	-11	-0.6
C[C@@H]1CN([C@@H](C)CO)C(=O)Cc2cc(NC(=O)Nc3ccccc3)ccc2O[C@@H]1CN(C)S(=O)(=O)c1ccc(F)cc1	5	-2.2	11	-0.0087
C[C@H]1CN([C@@H](C)CO)C(=O)c2cccc(NC(=O)C3CCOCC3)c2O[C@H]1CN(C)C(=O)Nc1ccc(C(F)(F)F)cc1	27	-1.0	-4	-0.4
CCOC(=O)c1cnc2ccc(OCC)cc2c1N(C)Cc1ccccc1	13	-2.6	30	-0.19
Cc1ccc(-n2c(C)nnc2SCC(=O)Nc2cccc(C)c2C)cc1	·	1.1	-3	·
C[C@H]1CN([C@@H](C)CO)C(=O)Cc2cc(NC(=O)Nc3ccc(C(F)(F)F)cc3)ccc2O[C@H]1CN(C)S(=O)(=O)c1ccc(F)cc1	-1	-3.4	46	-0.16
C[C@H]1CN([C@@H](C)CO)C(=O)c2cc(NS(C)(=O)=O)ccc2O[C@@H]1CN(C)S(=O)(=O)c1ccccc1	·	·	-5	-0.054
Oc1ccc(CN2CCCC2)c2cccnc12	85*	-2.5	41	-0.47
C[C@@H]1CCCCO[C@@H](CN(C)Cc2ccc3c(c2)OCO3)[C@@H](C)CN([C@H](C)CO)C(=O)c2cc(NC(=O)c3ccccc3)ccc2O1	38	·	-18	0.017
COc1ccc(S(=O)(=O)N(C)C[C@H]2Oc3c(NS(=O)(=O)c4ccc(C)cc4)cccc3C(=O)N([C@H](C)CO)C[C@@H]2C)cc1	20	0.2	-6	-0.16
C[C@@H]1CN([C@H](C)CO)C(=O)c2cccc(NS(=O)(=O)c3ccc(Cl)cc3)c2O[C@@H]1CN(C)Cc1ccc(-c2ccccc2)cc1	-24	-1.3	0	-0.54
COc1cc(NC(=O)COc2ccc(Cl)cc2C)c(C(=O)O)cc1OC	·	0.8	-2	·
C[C@H](CO)N1C[C@H](C)[C@@H](CN(C)Cc2ccc(C(=O)Nc3ccccc3N)cc2)Oc2c(NS(=O)(=O)c3ccccc3)cccc2C1=O	·	2.3	-10	-0.95
Cc1noc(C)c1NC(=O)Nc1ccc2c(c1)C(=O)N([C@@H](C)CO)C[C@H](C)[C@H](CN(C)Cc1ccc(Oc3ccccc3)cc1)O2	·	-1.0	-1	-0.63
C[C@@H]1CN([C@H](C)CO)C(=O)Cc2cc(NC(=O)Nc3ccc(F)cc3)ccc2O[C@H]1CN(C)CC1CC1	-20	·	4	-0.12
COC(=O)c1ccc(NC(=O)CCC(=O)c2ccc(F)cc2)cc1	·	1.5	17	·
C[C@@H]1CN([C@@H](C)CO)C(=O)Cc2cc(NC(=O)C3CC3)ccc2O[C@@H]1CN(C)S(=O)(=O)c1ccccc1	-1	-1.9	-12	-0.19
CC(C)NC(=O)Nc1ccc2c(c1)C(=O)N([C@H](C)CO)C[C@H](C)[C@@H](CN(C)C(=O)Nc1ccc(F)cc1)O2	-26	·	-2	0.0056
C[C@H]1CN([C@@H](C)CO)C(=O)c2cc(NC(=O)NC3CCCCC3)ccc2O[C@@H]1CN(C)Cc1ccc2c(c1)OCO2	-8	0.9	-6	0.12
Cc1ncsc1CCSc1nc2ccccc2c(=O)n1-c1ccccc1	·	-6.8	-3	·
C[C@H]1CN([C@@H](C)CO)C(=O)Cc2cc(NC(=O)CCCCCC(=O)Nc3ccccc3N)ccc2O[C@@H]1CN(C)C(=O)Nc1ccc(C(F)(F)F)cc1	·	3.1	-32	-0.53
COC(=O)C1=COC(O[C@@H]2O[C@H](CO)[C@@H](O)[C@H](O)[C@H]2O)[C@H]2[C@@H]1[C@H](OC(=O)CCc1ccc(O)cc1)C[C@]2(C)O (some centres undefined)	-21	3.0	-15	-0.42
CNc1cc(NS(=O)(=O)c2ccc(N)cc2)nc(NC)n1	30	0.7	8	0.26
COc1ccc(NC(=O)c2ccc(-c3ccc(-c4noc(C)n4)cc3C)cc2)cc1OCCN(C)C	?	·	-27	-0.41
CCCN(C)C[C@H]1OCCCC[C@@H](C)Oc2ccc(N(C)C)cc2C(=O)N([C@H](C)CO)C[C@@H]1C	-13	·	43	0.34
C[C@H]1CN([C@@H](C)CO)C(=O)c2cccc(NC(=O)Nc3ccccc3)c2O[C@@H]1CN(C)C(=O)Nc1ccccc1	-3	-0.8	-23	-0.09
C[C@@H]1CN([C@H](C)CO)C(=O)c2cccc(NC(=O)C3CCOCC3)c2O[C@@H]1CN(C)C(=O)NC1CCCCC1	1	·	-7	11*
COC(=O)CC1=CC(C)(CC(=O)OC)C(C#N)(C#N)C(N)=C1C#N (centres undefined)	-5	-1.7	-13	-0.31
C[C@H]1CN([C@@H](C)CO)C(=O)Cc2cc(NC(=O)CCCCCC(=O)Nc3ccccc3N)ccc2O[C@H]1CN(C)C(=O)Nc1cccc2ccccc12	·	0.1	-3	-0.36

Six entries already listed, ordered by length of the SMILES, rising.
SMILES	Hedgehog inh	PD-1 reverse act	MITF inhib	YB-1 expression
CNc1cc(NS(=O)(=O)c2ccc(N)cc2)nc(NC)n1	30	0.7	8	0.26
COC(=O)c1ccc(NC(=O)CCC(=O)c2ccc(F)cc2)cc1	·	1.5	17	·
C[C@@H]1CN([C@H](C)CO)C(=O)Cc2cc(NC(=O)Nc3ccc(F)cc3)ccc2O[C@H]1CN(C)CC1CC1	-20	·	4	-0.12
C[C@@H]1CN([C@@H](C)CO)C(=O)Cc2cc(NC(=O)C3CC3)ccc2O[C@@H]1CN(C)S(=O)(=O)c1ccccc1	-1	-1.9	-12	-0.19
C[C@H]1CN([C@@H](C)CO)C(=O)c2cc(NC(=O)NC3CCCCC3)ccc2O[C@@H]1CN(C)Cc1ccc2c(c1)OCO2	-8	0.9	-6	0.12
COC(=O)C1=COC(O[C@@H]2O[C@H](CO)[C@@H](O)[C@H](O)[C@H]2O)[C@H]2[C@@H]1[C@H](OC(=O)CCc1ccc(O)cc1)C[C@]2(C)O (some centres undefined)	-21	3.0	-15	-0.42

The listing continues:
SMILES	Hedgehog inh	PD-1 reverse act	MITF inhib	YB-1 expression
C[C@@H]1CN([C@@H](C)CO)C(=O)Cc2cc(NC(=O)Nc3ccc(C(F)(F)F)cc3)ccc2O[C@@H]1CN(C)C(=O)Nc1ccc2c(c1)OCO2	83*	·	55	0.052
C[C@H]1CN([C@@H](C)CO)C(=O)c2cc(NC(=O)Nc3ccccc3)ccc2O[C@H]1CN(C)C(=O)Nc1ccc2c(c1)OCO2	-47	-1.4	-12	-0.42
CC(C)NC(=O)Nc1ccc2c(c1)C(=O)N([C@@H](C)CO)C[C@H](C)[C@H](CN(C)C)O2	·	·	8	0.082
COc1ccc(S(=O)(=O)Nc2ccc3c(c2)C(=O)N([C@H](C)CO)C[C@@H](C)[C@@H](CN(C)Cc2ccc(C(=O)Nc4ccccc4N)cc2)O3)cc1	·	0.2	21	-0.38
COc1ccc(NC(=O)N(C)C[C@@H]2OCCCC[C@@H](C)Oc3ccc(NC(=O)Nc4ccccc4)cc3C(=O)N([C@H](C)CO)C[C@@H]2C)cc1	-30	1.1	0	-0.12
Cc1cc(C)nc(SCC(=O)Nc2ccnc3ccccc23)n1	·	-3.8	51	·
C[C@H](CO)N1C[C@H](C)[C@H](CN(C)S(C)(=O)=O)Oc2ccc(NS(=O)(=O)c3ccc(F)cc3)cc2CC1=O	-18	0.7	3	-0.32
CS(=O)(=O)N(CC(=O)Nc1cc(Cl)ccc1Cl)c1ccc(Oc2ccccc2)cc1	·	0.0	19	·
CNC[C@@H]1Oc2ccc(NS(=O)(=O)c3cn(C)cn3)cc2CC(=O)N([C@@H](C)CO)C[C@@H]1C	-25	0.2	0	-0.26
C[C@H]1CN([C@@H](C)CO)C(=O)c2cccc(NC(=O)C3CCCCC3)c2O[C@@H]1CN(C)S(=O)(=O)c1ccccc1	-16	1.9	-3	-0.37
c1ccc2cc3c(Nc4ccc(N5CCOCC5)cc4)ccnc3cc2c1	·	-0.8	11	-0.29
O=C(Cn1cnc2ccccc2c1=O)Nc1ccc(I)cc1	·	-0.2	-5	·
C[C@@H]1O[C@@H](O[C@@H]2[C@@H](O)[C@H](O)[C@@H](CO)O[C@H]2c2c(O)cc(O)c3c(=O)cc(-c4ccc(O)cc4)oc23)[C@H](O)[C@H](O)[C@H]1O	-11	·	·	0.096
C[C@H]1CN([C@@H](C)CO)C(=O)Cc2cc(NC(=O)C3CC3)ccc2O[C@@H]1CN(C)Cc1ccccc1	-2	0.9	-12	0.3
C[C@@H]1CN([C@H](C)CO)C(=O)c2cccc(NC(=O)Nc3ccccc3)c2O[C@@H]1CN(C)C	7	2.1	4	-0.36
Cc1ccc(S(=O)(=O)Nc2cccc3c2O[C@H](CN(C)Cc2ccc(Oc4ccccc4)cc2)[C@@H](C)CN([C@@H](C)CO)C3=O)cc1	-2	1.9	-2	-0.19
Cc1ccc(C)c(Cn2c(CCCO)nc3ccccc32)c1	·	0.0	-3	·
CC(C)NC(=O)N(C)C[C@H]1Oc2c(NC(=O)Nc3ccccc3)cccc2C(=O)N([C@@H](C)CO)C[C@H]1C	26	0.1	6	-0.4

Single records (already shown). Values in the order: Hedgehog inh, PD-1 reverse act, MITF inhib, YB-1 expression
Entry for COc1ccc(NC(=O)N(C)C[C@@H]2OCCCC[C@@H](C)Oc3ccc(NC(=O)Nc4ccccc4)cc3C(=O)N([C@H](C)CO)C[C@@H]2C)cc1 = -30, 1.1, 0, -0.12
Entry for C[C@@H]1O[C@@H](O[C@@H]2[C@@H](O)[C@H](O)[C@@H](CO)O[C@H]2c2c(O)cc(O)c3c(=O)cc(-c4ccc(O)cc4)oc23)[C@H](O)[C@H](O)[C@H]1O = -11, ·, ·, 0.096

Only part of the results is shown; the hit share may differ from the screen's.
